Abs 340nm – absorbance at 340 nm; 65,000 tested, under 10 active; fold change at 10 µM; compound absorbance at 340 nm, fold over control;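 active = at 10 µM dose, initial 340 nm absorbance at least 2 fold that of control wells; inactive = change under 2 fold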;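 note: initial absorbance extrapolated from kinetic A340 decline of NADH oxidation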
Her2 expr inh – lowers expression of human Her2 kinase; SKBR-3 HER2 protein level, AlphaScreen, 18-24 h; stronger effect = lower value; HER2 level % of control, % at 10 µM; hit rate 0.69% among 65,000; AID 645;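 active = HER2 level under 5% of the carrier-only control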;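 note: 100% = DMSO carrier and 0% = 500 nM PU-H71 HSP90 inhibitor; lower value means stronger loss of Her2 protein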
HTR1E antagonist – 5-HT1E (human) receptor antagonism. P28566. inhibition, % at 6 µM. CHO 5-HT1E Ga15 NFAT-bla reporter, FRET, antagonist. hit rate 0.99% among 65,000;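 active = inhibition above a set limit, the mean inhibition across every tested compound plus 3 SD, cut at about 29% in these data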;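 note: signal is the 460 over 535 nm emission ratio of beta-lactamase substrate; 0% = agonist plus DMSO wells and 100% = wells without agonist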
S1P1 ag pot – agonists and agonism potentiators of human S1P1 receptor | S1P1 CRE-bla cells, forskolin, beta-lactamase FRET, potentiator mode; S1P1 agonist co-added at EC20, 2 nM; 100% = saturating reference agonist, 0% = basal | activation, % at 9.5 µM | hit rate 0.57% among 56,000;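 active = activation above a cutoff set at the mean activation of all tested compounds plus 3 SD, cut at about 54% in these data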;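 note: forskolin at 4 µM as EC80 and the EC20 agonist is SEW2871; 100% = SEW2871 at its EC100 plus forskolin at EC80; some compounds past the cut are filed as inactive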
Target sequence (P21453 whole entry, looked up): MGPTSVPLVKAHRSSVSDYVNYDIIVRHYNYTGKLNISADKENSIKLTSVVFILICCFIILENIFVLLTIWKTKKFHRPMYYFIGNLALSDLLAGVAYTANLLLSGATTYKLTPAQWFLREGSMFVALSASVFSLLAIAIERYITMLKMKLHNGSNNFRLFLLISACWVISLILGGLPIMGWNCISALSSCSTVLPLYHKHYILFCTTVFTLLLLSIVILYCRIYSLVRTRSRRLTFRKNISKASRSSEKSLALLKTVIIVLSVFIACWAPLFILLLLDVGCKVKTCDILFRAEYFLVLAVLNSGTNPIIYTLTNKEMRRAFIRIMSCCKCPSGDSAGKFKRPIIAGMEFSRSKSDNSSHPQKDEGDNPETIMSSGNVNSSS
5HT1E ag – activates the human 5-HT1E serotonin receptor; P28566; CHO 5-HT1E Ga15 NFAT-bla reporter, FRET; 0% DMSO wells, 100% control agonist wells; activation, % at 6 µM; hit rate 0.69% among 65,000; AID 574;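 active = activation above a set limit, the screen-wide mean activation plus 3 SD, cut at about 8.5% in these data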;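 note: 100% = positive control agonist at 1 µM giving full maximal response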
S1P3 agonist – activates the human S1P3 receptor. S1P3 NFAT-BLA reporter cells, agonism, FRET ratio; relative to 1 µM S1P, basal subtracted. activation, % at 4.5 µM. hit rate 0.1% among 60,000;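 active = activation above the screen-wide mean plus 3 SD, cut at about 4.5% in these data, passing the limit was not always enough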; note: some compounds called inactive have numbers as strong as hits
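Material: Human S1P3 NFAT-BLA reporter CHO cells | Incubation: Overnight plating, 4 h compound 37 °C, 2 h substrate RT | Signal: FRET β-lactamase substrate fluorescence, excitation 405 nm, 460/535 nm emission ratio, background-subtracted | Compound: 4.5 µM final, single dose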
* marks the source's active call; other numbers are inactive results; · = no result given; & = joins results of further samples.

#1 COc1c2occc2cc2ccc(=O)oc12
#2 C[C@H](CS)C(=O)N1CCC[C@H]1C(=O)O
#3 Cn1c(N2CCOCC2)nc(-c2ccccc2)c1-c1ccccc1
#4 CCc1nnc(SCc2cn3c(C)cc(C)nc3n2)n1N
#5 CC(=O)Nc1ccc(-c2cn3cccnc3n2)cc1
#6 CCOC(=O)N1CCN(CC(=O)Nc2c(C(=O)OC)[nH]c3ccc(Cl)cc23)CC1
#7 C#CCn1c(=NC(=O)c2cccs2)sc2cccc(OC)c21
#8 Cc1cc(C)c2c(n1)nn1c(N3CCOCC3)cc(C)nc21
#9 COc1ccc2c(c1OC)C(=O)OC2C1c2c(cc3c(c2OC)OCO3)CCN1C (centres undefined)
#10 CN(C)CCCN1c2ccccc2CCc2ccccc21
#11 O=C(O)CC(O)C(=O)O (centres undefined)
entry no.	1	2	3	4	5	6	7	8	9	10	11
Abs 340nm	1.1	0.97	1	1	1.1	1.1	1.2	1	1&1	1	1
Her2 expr inh	100	87	78	97	130	90	45	100	111&60	103	57
HTR1E antagonist	9	-4	-6	3	6	8	-1	10	-4&-1	-2	-3
S1P1 ag pot	·	0	5	-37	·	40	-20	-16	-9&-13	-23	0
5HT1E ag	-0.7	0.0	20*	0.5	-0.1	-0.6	1.1	1.2	-0.2&-0.2	4.1	0.6
S1P3 agonist	-0.6	-3.2	1.2	-1.4	·	-1.1	0.6	-0.6	-1.2&-1.3	0.0	-1.8

Results in sequence from the entries so far.
Entries 1–9 in S1P1 ag pot read ·, 0, 5, -37, ·, 40, -20, -16, -9&-13

Profiles from above:
Record of CN(C)CCCN1c2ccccc2CCc2ccccc21 → Abs 340nm: 1; Her2 expr inh: 103; HTR1E antagonist: -2; S1P1 ag pot: -23; 5HT1E ag: 4.1; S1P3 agonist: 0.0
Record of Cn1c(N2CCOCC2)nc(-c2ccccc2)c1-c1ccccc1 → Abs 340nm: 1; Her2 expr inh: 78; HTR1E antagonist: -6; S1P1 ag pot: 5; 5HT1E ag: 20*; S1P3 agonist: 1.2

Some of these compounds in order of length of the SMILES, lowest first.
#1 COc1c2occc2cc2ccc(=O)oc12
#10 CN(C)CCCN1c2ccccc2CCc2ccccc21
#5 CC(=O)Nc1ccc(-c2cn3cccnc3n2)cc1
#4 CCc1nnc(SCc2cn3c(C)cc(C)nc3n2)n1N
#7 C#CCn1c(=NC(=O)c2cccs2)sc2cccc(OC)c21
entry no.	1	10	5	4	7
Abs 340nm	1.1	1	1.1	1	1.2
Her2 expr inh	100	103	130	97	45
HTR1E antagonist	9	-2	6	3	-1
S1P1 ag pot	·	-23	·	-37	-20
5HT1E ag	-0.7	4.1	-0.1	0.5	1.1
S1P3 agonist	-0.6	0.0	·	-1.4	0.6

Screens from PubChem BioAssay.

A portion of the library. The share of hits here may be higher or lower than overall.
